Screening data: PubChem BioAssay, Fisher Drug Discovery Resource Center
NPYLR7 agonist: agonists of mosquito NPYLR7 receptor, primary screen, cell-based, Aedes aegypti, calcium fluorescence, mosquito biting behavior; 270,000 compounds, 0.15% hits; activation, % at 10 µM; HEK293T NPYLR7/Galpha15, GCaMP6s calcium fluorescence; AID 1259423, 2018; Aedes aegypti neuropeptide Y-like receptor 7 (NPYLR7); in the data active means activation above about 40%;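 further: 0% = vehicle and 100% = reference agonist at the receptor; some compounds past the cut are filed as inactive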
NPYLR7 agonist max-min: also measured in NPYLR7 agonist; calls as there; activation, %; measured here: Max-Min RFU normalised activation; some inactives read as strong as hits;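 span of the calcium signal over five minutes; 0% = vehicle and 100% = native peptide agonist; compound fluorescence can raise it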
Numbers without * were called inactive; & = joins results of further samples.

SMILES	NPYLR7 agonist	NPYLR7 agonist max-min
CCNC(=O)CS(=O)(=O)c1nnc(C)n1Cc1ccccc1	7	3
CN(Cc1ccc(-c2ccc(Cl)cc2)o1)C(=O)NCC1CCCN1C (stereo not drawn)	1	-1
O=C(O)c1cc(NS(=O)(=O)c2cccc3ncccc23)c(F)cc1F	12	11
CC(C)Cc1nc(C(C)n2cncn2)n[nH]1 (stereo not drawn)	0	3
CCc1c(C)nn(CC(=O)N2CCn3cncc3C2)c1C	-2	-4
CN(CCC(=O)Nc1ccccc1Cl)Cc1cc(C2CC2)n[nH]1	4	-1
Cc1ccc(S(=O)(=O)Nc2ccc(-c3ccc(N4CCC(C)CC4)nn3)cc2)s1	-1	-1
COc1cc(OC)nc(C(NC(=O)C2CCN(Cc3ccncc3)CC2)c2ccc(F)cc2)n1 (stereo not drawn)	4	-2
CC1(C)CN(C(=O)Nc2ccc(Cl)cc2)C2(S1)C(=O)N(Cc1ccc(F)cc1)c1ccccc12 (stereo not drawn)	7	4
O=C(NCC(=O)N1CCc2ccccc2C1)c1ccc(Br)o1	6	4
CCOC(=O)c1c(-c2ccc(OC)c(OC)c2)csc1NC(=O)C12CC3CC(CC(C3)C1)C2	-4	-8
CSCc1ccnc(NC(=O)c2sccc2Br)c1	-21	-24
COC(=O)c1nc(N)sc1C(=O)c1ccc(OC)cc1	-5	-3
CN1CCN(/N=C\c2ccc(-n3ccnc3)cc2)CC1	-2	-7
Cc1ccccc1CN1CCN2C=C(C(=O)NC3CCc4ccccc43)OC2=NC1=O (stereo not drawn)	0	-2
CN(CCc1ccccc1)C1CCCN(C(=O)c2ccccc2Cl)C1 (stereo not drawn)	4&1	1&0
CCOc1ccc(CN2C(=O)C(C)C(C)C2=O)nc1 (stereo not drawn)	-2	-3
O=C(CNC(=O)N1CCC(Cc2cccc(F)c2)CC1)N1CCCCC1	2	-6
Cc1cc(C)n(-c2n[nH]c(=O)c3ccccc23)n1	-5	-6
Cn1c(Cc2csc(NC(=O)c3ccc(Cl)o3)n2)n[nH]c1=S	0	-1

Taken from above, 15 compounds:
SMILES	NPYLR7 agonist	NPYLR7 agonist max-min
CN(CCC(=O)Nc1ccccc1Cl)Cc1cc(C2CC2)n[nH]1	4	-1
Cc1ccc(S(=O)(=O)Nc2ccc(-c3ccc(N4CCC(C)CC4)nn3)cc2)s1	-1	-1
COc1cc(OC)nc(C(NC(=O)C2CCN(Cc3ccncc3)CC2)c2ccc(F)cc2)n1 (stereo not drawn)	4	-2
CC1(C)CN(C(=O)Nc2ccc(Cl)cc2)C2(S1)C(=O)N(Cc1ccc(F)cc1)c1ccccc12 (stereo not drawn)	7	4
O=C(NCC(=O)N1CCc2ccccc2C1)c1ccc(Br)o1	6	4
CCOC(=O)c1c(-c2ccc(OC)c(OC)c2)csc1NC(=O)C12CC3CC(CC(C3)C1)C2	-4	-8
CSCc1ccnc(NC(=O)c2sccc2Br)c1	-21	-24
COC(=O)c1nc(N)sc1C(=O)c1ccc(OC)cc1	-5	-3
CN1CCN(/N=C\c2ccc(-n3ccnc3)cc2)CC1	-2	-7
Cc1ccccc1CN1CCN2C=C(C(=O)NC3CCc4ccccc43)OC2=NC1=O (stereo not drawn)	0	-2
CN(CCc1ccccc1)C1CCCN(C(=O)c2ccccc2Cl)C1 (stereo not drawn)	4&1	1&0
CCOc1ccc(CN2C(=O)C(C)C(C)C2=O)nc1 (stereo not drawn)	-2	-3
O=C(CNC(=O)N1CCC(Cc2cccc(F)c2)CC1)N1CCCCC1	2	-6
Cc1cc(C)n(-c2n[nH]c(=O)c3ccccc23)n1	-5	-6
Cn1c(Cc2csc(NC(=O)c3ccc(Cl)o3)n2)n[nH]c1=S	0	-1

Further structures:
SMILES	NPYLR7 agonist	NPYLR7 agonist max-min
O=C(NN=Cc1ccc(N2CCOCC2)s1)NN=Cc1ccc(N2CCOCC2)s1	3	-1
COC(=O)CNC(c1ccccc1)c1cc(Br)ccc1NC(C)=O (stereo not drawn)	-2	-4
COc1ccc2c(c1)C1CC(C)(NC(=O)C1S(=O)(=O)c1ccc(C)cc1)O2 (stereo not drawn)	5	9
CCCCc1nn(-c2ccccc2C(F)(F)F)c(=O)n1Cc1ccc(-c2ccccc2S(=O)(=O)NC(=O)c2sccc2C)cc1	-16	-21
Cn1cnnc1Sc1ccc(CN2CCCC(C(=O)c3ccc(Cl)cc3)C2)o1 (stereo not drawn)	-3	-17
CCOC(=O)CNc1c(-c2ccc(C(F)(F)F)cc2)nc2ccc(Cl)cn12	22	24
CC(=O)C1(C)CC2(CC(C)(C)OC2=O)C(=O)O1 (stereo not drawn)	-1&2	0&2
CCc1cnccc1NC(=O)c1cnn(C)c1-n1c(C)ccc1C	3	-1
COc1ccc(C(=O)C2CCCN(Cc3cc4ccccc4o3)C2)c(OC)c1 (stereo not drawn)	15	5
Cc1cccnc1C1=NOC(Cc2ccccc2)C(=O)N1Cc1ccccc1 (stereo not drawn)	8	3
Cc1c(C)c(C(=O)NC2CC2)n(Cc2ccc(F)c(F)c2)c1C	12	13
CCN1C(=O)C2CSCN2C1=O (stereo not drawn)	9	6
CCn1ncnc1CN1CCC(c2[nH]ncc2-c2cccc(OC)c2)CC1	12	3
CCc1nc(CN2CCN(Cc3ccc(C)o3)C(CCO)C2)c(C)[nH]1 (stereo not drawn)	4	2
O=C(COc1ccc(Cl)cc1)Nc1nnc(SCc2c(Cl)cccc2Cl)s1	6	11
CCc1ccc(NC(=O)Nc2ccc(N3CCC(C)CC3)c(C(=O)N3CCC(C)CC3)c2)cc1	11	23
CCc1nc(COC(=O)CC(NC(C)=O)c2ccc(C)cc2)cs1 (stereo not drawn)	2	8
CCOc1cc(/C=C2/SC(=S)N(C(C)C(=O)O)C2=O)ccc1O (stereo not drawn)	37	31
COc1cccc(C(C2Sc3ncnn3C2=O)N2CCc3ccccc3C2)c1 (stereo not drawn)	-2	2
Cc1ccc(Nc2nc(NCCc3ccccc3)nc3nccnc23)c(C)c1	2	0
CCCCC(=O)Nc1c(-c2ccc(OC)c(OC)c2)nc2cc(C)ccn12	-3	5
C=CCNC(=O)NC1CCN(c2ccccc2C(=O)NCc2ccc(F)cc2)CC1	-1	9
Cc1noc(C)c1CNC(=O)c1cccc(NC(=O)c2ccco2)c1C	22	16
CCC(C)C(=O)NS(=O)(=O)c1c(Cl)nc2ccccn12 (stereo not drawn)	9	3
CN(Cc1cccc(-n2cccn2)c1)Cc1cccs1	1	-2
CCCN(Cc1ccncc1)C(=O)C1COc2ccccc2O1 (stereo not drawn)	-6	-6
CSc1nncc(-c2ccc(Br)cc2)n1	6	3
COC(=O)c1sccc1S(=O)(=O)Nc1ccc(OC(F)F)cc1	-15	-10
O=C(O)CCc1nc2ccc(Br)cc2c2nc(=O)c(-c3ccccc3)nn12	0	-3
O=C(Nc1c2c(nn1-c1ccc(F)cc1)CS(=O)(=O)C2)C12CC3CC(CC(C3)C1)C2	6	5
Cc1ccccc1C(C)NC(=O)CCn1cnc2sc3c(c2c1=O)CCCC3 (stereo not drawn)	5	1
CC(NC(=O)c1coc(CN(CCN2CCOCC2)Cc2cccc(Oc3ccccc3)c2)n1)c1ccccc1 (stereo not drawn)	-11	4
O=C(Cc1ccc(Cl)c(Cl)c1)Nc1ccc(N2CCCC2)cn1	3	0
CC(C)Oc1cccc(C(=O)C2CCCN(C(=O)c3cncs3)C2)c1 (stereo not drawn)	-3	-7
CC(C)C1(CNC(=O)c2ccc(Br)s2)CC1	4&-14	-6&-20
CN1Cc2c(N)cccc2C(c2ccccc2)C1 (stereo not drawn)	-6&12&-1&7	-8&10&-6&-6
Cn1nc(NC(=O)C2CCN(S(C)(=O)=O)CC2)c2c1NC(=O)CC2c1cccs1 (stereo not drawn)	-12	-19
O=C(c1cc(C2CC2)[nH]n1)N1C[C@@H]2C3CCC(CC3)[C@@H]2C1	17	17
CCOC(=O)C1(Cc2ccccc2C(F)(F)F)CCN(C(=O)Cc2nonc2C)CC1	1	-3
CNCC(=O)NCCc1cnn(-c2ccccc2)c1	3	3
CCN(CC)C1=CC(=O)OC12CCCCC2	2	2
O=C1C(c2ccccc2)=S=C2C(N3CCOCC3)=Nc3ccccc3N12	-3	-1
CCS(=O)(=O)Oc1cccc(CN(CC(C)C)C(=O)Nc2ccccc2C)c1	-6	3
O=C(NC1CCN(c2ccc(OC(F)F)cc2)CC1)c1ccccn1	-19	-24
N#Cc1ccc(N2CCCN(c3cc(Cl)nc(N)n3)CC2)cc1	11	6
Cc1ccc(N=CC(C#N)c2nc3ccccc3s2)cc1 (stereo not drawn)	-2	-7
O=C(c1cccc(Cn2cccn2)c1)N1CCO[C@@H]2CCCC[C@H]21	3	2
COc1cc(CN2C(=O)C3(CCC3)ON=C2c2ccccc2)cc(OC)c1	0	-4
Nc1cnccc1-c1cccc(F)c1	2	1
CC(C)(C)c1nc(CN2C[C@H]3C[C@H](O)[C@@H](O)C[C@H]3C2)no1	13	0
Additional entries follow:
SMILES	NPYLR7 agonist	NPYLR7 agonist max-min
Cc1cc(N2CCN(C)CC2)ccc1NC(=O)C1=Cc2ccccc2OC1	-7	-9
O=C(NCCn1nc(-c2cccnc2)ccc1=O)Nc1ccc(C(F)(F)F)cc1	16	7
Cc1nc(C(C)C)sc1C(=O)N1CCC2(CC1)CC(C(=O)O)N(C)C2 (stereo not drawn)	1	-6
O=c1[nH]c2ccccc2c(-c2ccccc2)c1-n1nnc2ccccc2c1=O	3	3
CCN(CCO)c1nc(-c2ccc(F)cc2)cs1	4	-1
COc1cc(C(=O)Nc2c3c(nn2-c2ccccc2C)CS(=O)(=O)C3)cc(OC)c1OC	-3	-4
O=C(c1cnc2sc3ccccc3n12)C(F)(F)F	1	6
Cc1ccc(C(=O)N2CCC3(CCCN(Cc4ccc(F)cc4)C3)C2)cn1 (stereo not drawn)	9	3
CCN(Cc1ccc(C(=O)Nc2cc(C)cc(C)n2)cc1)[C@H]1COC[C@@H]1O	23	17
Clc1nc2c(Cl)ccc(Cl)c2s1	0	-16
COc1nc(-c2ccccc2C)n(-c2ccc(NC(=O)/C=C/c3ccccc3)cc2)n1	12	17
CN(Cc1cc(-c2ccccc2)no1)Cc1nc(-c2ccc3c(c2)OCO3)no1	12	11
O=c1n(Cc2ccccc2F)nc(C2CCCNC2)n1-c1ccccc1 (stereo not drawn)	10	8
Cc1c(C(=O)N(C)C2CCCCC2)c(C(F)(F)F)nn1C1CCCN(C)C1 (stereo not drawn)	6	1
Cc1cc(NS(=O)(=O)c2c(F)cccc2F)ccn1	-32	-32
O=C(NCCCn1nc(-c2ccncc2)ccc1=O)c1ccccc1F	10	3
C=c1[nH]n(Cc2ccccc2)c(=O)/c1=C/c1ccc(N(C)C)cc1	2	-1
Cc1cc(F)ccc1S(=O)(=O)NCC(C)N1CCCCC1C (stereo not drawn)	6	0
O=C(c1ccc(F)cc1Cl)N1CCCC(O)(CO)CC1 (stereo not drawn)	2	1
CCS(=O)(=O)Nc1cccc(-c2nc3cccnc3s2)c1C	-8	-10
COCC1CCCCN1Cc1nc(Cc2cccc(F)c2)no1 (stereo not drawn)	3	1
Fc1cnc(NC2CCN(Cc3ccccc3)C2)nc1N1CCOCC1 (stereo not drawn)	0	-5
COc1ccc(F)cc1C(=O)C1CCCN(Cc2cnc(N3CCOCC3)s2)C1 (stereo not drawn)	7	9
CC1(C)C(=O)NCCN1C(=O)CC(c1cccc(Cl)c1)c1ccccc1O (stereo not drawn)	4	0
CCC(C)CN(CC)C(=O)c1csc(Cc2ccccc2F)n1 (stereo not drawn)	0	-2
Cc1c(C(=O)N2CCCC2)nnn1-c1nonc1N	6	5
Cc1ccc(-c2ccc(CCC(=O)NCCCN3CCCC3=O)n2-c2ccc(CC#N)cc2)c(C)c1	-1	-4
O=C1C[C@H]2CC[C@@H](CN1)N2Cc1cn[nH]c1-c1ccc(F)cc1	6	4
COc1ccc(N(Cc2ccc(F)cc2Cl)C2=NC3CS(=O)(=O)CC3S2)cc1 (stereo not drawn)	0	-1
COC(=O)c1cc(CN2C[C@@H]3[C@@H]4CC[C@@H](C4)[C@@H]3C2)cs1	6	3
O=C(CSc1nc(=O)n(CCO)c2c1CCC2)N1CCCc2ccccc21	-2	-10
CN(C)C(=S)CC(O)(c1ccccc1)c1ccccc1	2	8
Cc1noc(C)c1C(=O)OC(C)C(=O)Nc1c(Cl)cc(Cl)cc1Cl (stereo not drawn)	-1	-1
O=[N+]([O-])c1ccc(NCc2cccc(C(F)(F)F)c2)c(S(=O)(=O)N2CCOCC2)c1	3	4
Cc1nc(CN2CCC(C(=O)NCc3ccccc3C)CC2)cs1	8	3
O=C(NC1CCCCC1)N1CCn2cccc2C1c1ccccc1F (stereo not drawn)	9	5
COCCNC(=O)c1cc2n(n1)CCN(Cc1ccccc1F)C2=O	17	23
O=C(Nn1cnc2c(cnn2-c2cccc(Cl)c2)c1=O)C1(c2ccc(Cl)cc2)CCCC1	4	2
O=C(c1ccccc1F)N(Cc1ccccc1F)CC1CC(c2ccccn2)=NO1 (stereo not drawn)	4	12
CC(C)NC(=O)CSc1ncnc2scc(-c3ccc(Cl)cc3)c12	-2	-5
CCn1nc(C)c(C(=O)N2CCCC(O)(CO)CC2)c1C (stereo not drawn)	10	6
COc1ccc(S(=O)(=O)N2CCN(Cc3nnnn3-c3ccc(C)cc3)CC2)cc1C	2	2
C=C(C)CC(C)=NNc1ccc(S(N)(=O)=O)cc1[N+](=O)[O-]	2	3
CCN1CCN(c2nc(N)c([N+](=O)[O-])c(Nc3ccccc3F)n2)CC1	2	4
C=CCC(O)(CC=C)c1ccc(CN(Cc2ccsc2)C2CC2)o1	0	4
CCC(Sc1ccc2nnc(CCNC(=O)c3ccccc3)n2n1)C(=O)OC (stereo not drawn)	1	-1
CC=CCOc1ccccc1-n1c(C)c(C)n2c3c(=O)n(C)c(=O)n(C)c3nc12	5	7
CCCCCCCCn1c(C)cc(=O)[nH]c1=O	8	5
O=C(C1CSc2ccccc2O1)N1CCC(c2ccc(O)cc2)CC1 (stereo not drawn)	0	-1

An excerpt (hit frequency here may not be typical).
